# Mtb betalactam: beta-lactam sensitization of Mtb H37Rv, H37Rv; M. tuberculosis H37Rv growth with meropenem, percent inhibition; hits of this screen are not shown here; inhibition, % at 25 µM; 0.27% of 330,000 active; AID 434955, 2010;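 active = about 74% or more and at least 40 points above the plate without the antibiotic, then above 30% in a dose series; inconclusive = first-round hits that could not be retested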;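 also: growth measured after seven days incubation then overnight dye step; 0% = bacteria only wells and 100% = bacteria with antibiotic; twin plates without the antibiotic show which effects depend on it; some results filed as inactive read as strong as hits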
# An asterisk follows results filed as active; ? = inconclusive. Only part of the results is shown; rates above refer to the full screens.
Molecule	Mtb betalactam
Cc1cccc(C(=O)OCC(=O)NN2C(=O)NC3(CCC(C)CC3)C2=O)c1O (stereo not drawn)	6.3
c1ccc2cc(CCCc3cc4ccccc4cn3)ncc2c1	24.1
O=C(C1COc2ccccc2O1)N1CCN(c2ccccc2O)CC1 (stereo not drawn)	-1.1
COC(=O)c1c(C)[nH]c(C(=O)C(C)OC(=O)c2c(C)noc2C)c1C (stereo not drawn)	1.5
Cc1cc(C)n2nc(SCC(=O)NC(=O)c3ccccc3Cl)nc2n1	4.8
CCN(CC)C(CNC(=O)CSc1nnnn1-c1cccc(F)c1)c1ccco1 (stereo not drawn)	-4.3
Cc1cc(C(=O)COc2cc(F)ccc2[N+](=O)[O-])c(C)n1CC1CCCO1 (stereo not drawn)	-0.2
COc1ccc(OC)c(-c2csc(NC(=O)COC(=O)C3(C)CC3(Cl)Cl)n2)c1 (stereo not drawn)	5.3
COc1ccc([C@H]2CC(=O)C=C(c3cc(OC)ccc3OC)C2)cc1	77.4
COc1ccc(C(CNC(=O)c2cccc(S(=O)(=O)N(C)c3ccccc3)c2)N2CCCC2)cc1 (stereo not drawn)	80.1
O=C(COC(=O)CCc1ccccc1)NCc1ccc2c(c1)OCO2	-0.4
Oc1ccccc1CN1CCCC(N2CCN(c3cccc(C(F)(F)F)c3)CC2)C1 (stereo not drawn)	77.5
O=C(Nc1cccc(S(=O)(=O)N2CCCCC2)c1)C1CC1	-10.3
COC(=O)C1=C(c2cccc(OCc3ccccc3)c2)C[C@@H]2CC[C@H]1N2C(=O)NCCCOC(C)C	1.9
COCCNC(=O)CN(C(=O)CCC(=O)Nc1ccccn1)c1ccc(C)c(C)c1	6.6
COc1ccccc1NS(=O)(=O)c1cc(NC(=O)c2ccccc2[N+](=O)[O-])ccc1N1CCOCC1	1.1
CCOc1cc(-c2n[nH]c(=S)n2Cc2ccccc2)ccc1OC(F)F	-3.7
CC1CC(C)CN(C(=O)COC(=O)c2ccc3c(c2)C(=O)N(Cc2ccco2)C3=O)C1 (stereo not drawn)	-8.2
COc1ccccc1Nc1nc(-c2sc(N)nc2C)cs1	-6.2
CC(=O)Nc1ccc(S(=O)(=O)NC(C)C(=O)NCC(c2ccco2)N2CCCCC2)cc1 (stereo not drawn)	0.7
Cc1nc(SCC(=O)NC2CCS(=O)(=O)C2)c2c3c(sc2n1)CCC3 (stereo not drawn)	-2.6
CCCCCn1cnnc1SCC(=O)c1ccc2c(c1)OCO2	-1.5
O=C(CNS(=O)(=O)c1ccccc1)N/N=C/c1ccncc1	-4.5
COc1ccc(NC(=O)N(C)C[C@H]2Oc3c(NC(=O)Cc4ccccc4)cccc3C(=O)N([C@H](C)CO)C[C@@H]2C)cc1	3.4
COc1ccc(C(=O)Nc2cccc(S(=O)(=O)N3CCCC3)c2)cc1S(=O)(=O)N1CCOCC1	-8.3

# Exported as labelled records: entries from further up
> O=C(Nc1cccc(S(=O)(=O)N2CCCCC2)c1)C1CC1
  Mtb betalactam = -10.3
> COC(=O)C1=C(c2cccc(OCc3ccccc3)c2)C[C@@H]2CC[C@H]1N2C(=O)NCCCOC(C)C
  Mtb betalactam = 1.9
> COCCNC(=O)CN(C(=O)CCC(=O)Nc1ccccn1)c1ccc(C)c(C)c1
  Mtb betalactam = 6.6
> COc1ccccc1NS(=O)(=O)c1cc(NC(=O)c2ccccc2[N+](=O)[O-])ccc1N1CCOCC1
  Mtb betalactam = 1.1

# Other records follow.
Molecule	Mtb betalactam
Cc1ccc(OCC(=O)N(Cc2ccco2)c2c(N)n(Cc3ccccc3)c(=O)[nH]c2=O)cc1C	3.1
O=C(Cc1ccccc1C(=O)O)Nc1cccc2ccccc12	2.3
CC(C)(C)OC(=O)NCc1ccc(CNC(=O)c2nc[nH]c2C(=O)NCc2ccccc2)cc1	-4.4
Cc1ccc(S(=O)(=O)N2CCOCC2)cc1C(=O)OCC(=O)NCCc1ccccc1	-5.4
CC(C)(C)OC(=O)N1CCC(NC(=O)c2[nH]cnc2C(=O)Nc2cccc(Cl)c2)CC1	82.6
O=C(CSc1nnc(Nc2ccccc2)s1)NC1CCCC1	5.6
Clc1ccc(OCCNCCc2ccccc2)cc1	-5.1
COc1ccccc1-c1coc2c(CN(C)C)c(O)ccc2c1=O	2.2
Cn1c(N)c(C(=O)CSc2nc(C3CC3)n(-c3ccccc3)n2)c(=O)[nH]c1=O	-8.6
O=C(COC(=O)c1cc(Cl)cc(Cl)c1)NCc1ccco1	11.7
CCOc1ccccc1OCC(=O)NN=C1CCCC(=O)C1	-6.5
COc1ccc2c(c1)OC[C@H]1[C@H]2N2C(=O)CN(Cc3ccc(F)cc3)C(=O)[C@@]2(C)[C@H]1c1ccccc1	71.9
O=C(CNC(=O)c1ccccc1F)NCCN1C(=O)S/C(=C\c2ccc3c(c2)OCO3)C1=O	-9.2
O=C1N[C@@H](c2ccccc2)COC(=O)[C@@H](Cc2ccc(F)cc2)C/C=C\C[C@@H]1CC(=O)N(CCO)Cc1ccccc1	-0.4
COc1ccc(S(=O)(=O)N2CCC(C(=O)NCCOc3ccccc3F)CC2)cc1OC	-3.2
COc1ccc(CCNC(=O)COC(=O)C2COc3ccccc3O2)cc1 (stereo not drawn)	-1.0
O=C(CC1OC(=O)c2ccccc21)NNC(=O)c1ccc(F)cc1 (stereo not drawn)	0.5
COc1cc(OC)cc(C(=O)NCC(=O)OCC(=O)NCc2ccco2)c1	2.1
CC(C)OCC1CO1 (stereo not drawn)	-3.9
C[C@H](CO)N1C[C@H](C)[C@@H](CN(C)C(=O)Nc2ccccc2)Oc2ccc(NC(=O)C3CCCCC3)cc2C1=O	6.8
COc1cc(C(=O)OCC(=O)c2cc(C)n(CC3CCCO3)c2C)cc(OC)c1C (stereo not drawn)	-12.0
COc1ccc2nc(-c3ccccc3)cc(C(=O)OCC(=O)N3CCCCC3)c2c1	59.8
NC(N)=Nc1ccc2[nH]c3c(c2c1)C[C@@]1(O)[C@H]2Cc4ccc(O)c5c4[C@@]1(CCN2CC1CC1)[C@H]3O5	3.7
CC1(C)O[C@@H]2[C@H](O1)[C@@H](CO)O[C@H]2n1cc(Br)c(=O)[nH]c1=O	10.1
CC(OC(=O)c1ccc(Cl)cc1)C(=O)NCc1ccc2c(c1)OCO2 (stereo not drawn)	2.7
CN(CC(=O)NCc1ccc(F)cc1)CC(=O)Nc1ccc(Cl)c(C(F)(F)F)c1	18.3
Cc1ccc(S(=O)(=O)N2[C@@H](c3ccccc3F)C(C(=O)O)=CC[C@H]2c2ccc(Cl)cc2)cc1	-1.7
COc1ccc(C(=O)Nc2ccc(Br)cn2)cc1S(=O)(=O)N1CCOCC1	-7.1
O=c1c(-c2c(O)cc(O)c3c2O[C@H](c2ccc(O)cc2)CC3)c(-c2ccc(O)cc2)oc2cc(O)cc(O)c12	-11.4
CC1CCCC(NC(=S)NC(=O)c2ccco2)C1C (stereo not drawn)	4.4
CC1CCCC(NC(=O)COC(=O)c2cc3ccccc3oc2=O)C1C (stereo not drawn)	9.7
NC(=O)C1CCN(c2nc(-c3cccc(Cl)c3)cs2)CC1	3.8
Cc1ccc(CN2[C@@H](Cc3ccccc3)C(=O)CS2(=O)=O)cc1	-3.5
C/C(=N\NC(=O)COc1ccc([N+](=O)[O-])cc1)c1ccco1	-6.9
CCN(CC(=O)Nc1ccc(OC)cc1)C(=O)c1ccc2ccccc2c1	-1.9
CC(=O)Nc1ccc(-c2csc(NC(=O)CC(NC(C)=O)c3ccccc3)n2)cc1 (stereo not drawn)	-4.9
COc1cc(/C=C/C(=O)OCc2csc(CC(=O)Nc3ccc(C)cc3)n2)ccc1OCC#N	-2.6
CCCc1cc(NC(=O)COC(=O)c2ccc(O)cc2O)n(-c2ccccc2)n1	-3.5
N#Cc1ccccc1OCC(=O)NCC(c1ccc(F)cc1)N1CCOCC1 (stereo not drawn)	-4.1
Cc1cc(F)ccc1NS(=O)(=O)c1c(C)nc2scc(C)n2c1=O	-1.4
Cc1ccc(C(=O)c2nc(C(=O)NCCO)nc3ccccc23)cc1	-5.1
CC(C)c1ccc(S(=O)(=O)N2CCN(C(C)C(=O)N3CCCC3)CC2)cc1 (stereo not drawn)	-3.1
CCCC[C@H](CC(=O)c1ccccc1)[C@@H](OC(C)=O)C(=O)Oc1c(C(C)C)cccc1C(C)C	-6.7
COc1cc([C@@H]2CC=C(C(=O)O)[C@H](c3ccc(F)cc3)N2S(=O)(=O)c2ccc(C)cc2)cc(OC)c1OC	0.1
COC(=O)[C@@]12CCCCN1[C@H](c1ccc(-c3ccc(OC)cc3)c(OC)c1)[C@@H]1C(=O)N(C)C(=O)[C@@H]12	-2.3
CCCCN(C(=O)c1cnc(C)cn1)c1c(N)n(CCC)c(=O)[nH]c1=O	2.3
Cc1ccc(N(CC(=O)NC2CCCC2)C(=O)c2nsc(Cl)c2Cl)cc1	-9.4
O=C(COc1cccnc1[N+](=O)[O-])Nc1ncc(Cl)cc1Cl	1.4
Cc1ccc(N2CC(C(=O)OCc3nnc(-c4ccccc4)o3)CC2=O)cc1 (stereo not drawn)	2.9
CC(C)(C)NC(=O)CC1C[C@H](C(=O)N2CCOCC2)[C@@]2(CCC3CCCC3)c3[nH]c4ccccc4c3CCN2C1=O (stereo partly drawn)	0.0

# (further entries)
Molecule	Mtb betalactam
COc1ccc(OC)c(N(CC(=O)NC2CCCCCC2)S(=O)(=O)c2ccc(C)cc2)c1	?
CCC[C@@H](O)c1cc2cc(OC)c(OC)cc2c(=O)o1	3.0
CC(Cc1ccco1)NC(=O)c1ccc(C(F)(F)F)cc1 (stereo not drawn)	46.5
COc1ccc(S(=O)(=O)N(C)Cc2ccc3c(c2)OCCO3)cc1	-7.1
Cc1ccccc1OCCC(=O)OCC(=O)Nc1ccc(C(N)=O)cc1	0.3
O=C(Nc1cccc(S(=O)(=O)N2CCCC2)c1)c1cncc(Br)c1	-1.3
OCC[C@H]1C[C@@H](O)[C@H](O)[C@]2(OCc3ccccc32)O1	-5.9
NC(=O)C1CCN(C(=O)CCn2c(=O)oc3ccccc32)CC1	-2.6
CN(Cc1ccccc1Cl)C(=O)CNC(=O)C12CC3CC(CC(C3)C1)C2	6.3
Cc1ccccc1OCC(=O)OCC(=O)Nc1ccc(Cl)cn1	6.2
O=C(CN1CCc2ccccc2C1)Nc1cccc(S(=O)(=O)N2CCOCC2)c1	-0.7
COc1ccc(C(CNC(=O)c2c(C)nn(Cc3ccc(C)cc3)c2Cl)N2CCOCC2)cc1 (stereo not drawn)	-6.4
CCN(C[C@H]1N[C@@](Cc2ccccc2)(C(=O)OC)[C@H]2C(=O)N(Cc3ccccc3)C(=O)[C@@H]12)S(=O)(=O)c1ccc(C)cc1	-6.6
CCN(CC(=O)NCc1cccs1)C(=O)c1ccc(-c2ccccc2F)o1	-2.8
C[C@H](NC(=O)c1nc[nH]c1C(=O)N(C)Cc1ccccc1)C(=O)OC(C)(C)C	-4.2
COc1cccc(NC(=O)CN(C)C(=O)c2ccccn2)c1	-3.7
CCN(C(=O)COC(=O)c1ccc2ccccc2c1)c1c(N)n(Cc2ccccc2)c(=O)[nH]c1=O	1.0
O=C(C1CCN(S(=O)(=O)c2c(Cl)cccc2Cl)CC1)N1CCCC1	3.7
Cc1ccc(C)c(S(=O)(=O)NCCC(=O)N2CCCC(C(N)=O)C2)c1 (stereo not drawn)	8.1
O=C(CSCc1ccco1)N1CCc2ccccc21	3.4
Nc1ccc(OCCc2ccccc2)cc1	96.5
COc1ccc2oc(C(=O)OCC(=O)N3CCCCC3C)c(C)c2c1 (stereo not drawn)	-4.3
CCCCCCCCCCCCCCCC(=O)OC(CC(=O)O)C[N+](C)(C)C (stereo not drawn)	-0.2
Cc1n[nH]c(=S)n1/N=C/c1c(O)ccc2ccccc12	3.4
CCCN(CC(=O)Nc1ccccc1OC)C(=O)c1ccc(COc2ccccc2)o1	-3.5
N#Cc1ccc(CN2CCN(C(=O)C3CC(=O)N(c4ccccc4F)C3)CC2)cc1 (stereo not drawn)	2.1
COc1cc2c(cc1OC)CN(C(=O)CCNC(=O)c1ccccc1Cl)CC2	1.3
CN(C)c1ccc(/C=N/NC(=O)C(=O)N2CCCCCC2)cc1	-6.1
C=CCn1c(=S)[nH]c2cc(C(=O)N3CCN(c4ccccc4OC)CC3)ccc2c1=O	1.1
CC[C@@H](C)[C@@H]1CN([C@@H](CN2CCC[C@H]2CN2C(N)=NC[C@H]2CC(C)C)C(C)C)C(=N)N1CCc1ccc(Cl)c(Cl)c1	100.1
O=C(c1ccc2ccccc2n1)N1CCN(S(=O)(=O)c2ccccc2)CC1	-2.7
C[C@H](NC(=O)c1[nH]cnc1C(=O)Nc1ccccc1)c1ccccc1	98.6
CCC1CCC/C1=N\NC(=O)c1ccccc1Cl (stereo not drawn)	-7.2
O=C(NCc1ccccc1Cl)C1CCC(=O)N(CC2CCCCC2)C1 (stereo not drawn)	-2.1
CC(Oc1ccc(Br)cc1)C(=O)NC1CCCCCC1 (stereo not drawn)	0.5
COc1ccc(S(=O)(=O)N2CCOCC2)cc1NC(=O)COc1ccc2c(C)cc(=O)oc2c1	-0.9
O=C(/C=C/c1ccccc1[N+](=O)[O-])NNC(=O)c1ccncc1	-0.9
CCc1ccccc1NC(=O)CSc1nc2[nH]c(=O)cc(O)c2s1	-5.3
Cc1ccc(NC(=O)CN(C)C(=O)c2cc3c(s2)CCCCC3)cc1	-1.9
COC(=O)C1=C(c2ccc(F)cc2OCc2ccccc2)C[C@@H]2CC[C@H]1N2C(=O)NCc1ccco1	1.2
CC1CCN(C(=O)Cn2c(=O)n(Cc3ccco3)c(=O)c3sccc32)CC1	-1.9
Cc1cc(C)nc(SCC(=O)NCC2COc3ccccc3O2)n1 (stereo not drawn)	-7.1

# High-throughput results: PubChem, Southern Research Specialized Biocontainment Screening Center
